RanGTP-Imp inh: inhibitors of RanGTP-importin-beta interaction, primary screen, biochemical, FRET, CFP-Ran, YFP-importin-beta, homogeneous; cell-free CFP-Ran/YFP-importin-beta FRET ratio; inhibition, % (test concentration not listed); 1.1% of 300,000 active; AID 2216;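 active = most replicates above 15%; inconclusive = exactly half above 15%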;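 note: 0% = DMSO wells and 100% = Ran loaded with GDP instead of GTP; wells of about 40 µL received 100 nL stock; the first replicate is given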
HNF4A DNA FP: change in binding of human HNF4 alpha to DNA; AID 1224865; HNF4a-FITC DNA binding, fluorescence polarization, 1 h; activity change, % at 10 µM; 0.3% of 360,000 active; P41235; in the data active = activity change above about 30%, passing the limit was not always enough;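 note: controls were the assay level and a saturating level of protein; the project sought stronger binding though the title names inhibitors; some compounds called inactive have numbers as strong as hits; positive values seem to mean higher polarization but the record does not say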
Target sequence (P41235 whole entry, looked up): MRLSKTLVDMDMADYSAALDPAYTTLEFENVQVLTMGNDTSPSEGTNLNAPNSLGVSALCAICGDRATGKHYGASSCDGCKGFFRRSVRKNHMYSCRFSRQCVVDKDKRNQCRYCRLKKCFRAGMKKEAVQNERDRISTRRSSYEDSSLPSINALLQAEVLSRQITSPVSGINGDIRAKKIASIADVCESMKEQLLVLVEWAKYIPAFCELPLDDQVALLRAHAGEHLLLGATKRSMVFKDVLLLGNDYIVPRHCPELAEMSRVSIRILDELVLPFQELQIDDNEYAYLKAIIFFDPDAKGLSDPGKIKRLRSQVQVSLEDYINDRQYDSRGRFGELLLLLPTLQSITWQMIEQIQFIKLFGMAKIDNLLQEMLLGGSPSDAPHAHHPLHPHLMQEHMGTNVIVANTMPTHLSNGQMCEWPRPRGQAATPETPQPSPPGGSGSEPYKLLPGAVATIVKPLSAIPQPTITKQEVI
ALR H2O2 inh: human ALR oxidase inhibition via reduced H2O2. AID 485317. inhibition, % (test concentration not listed). 3.8% of 290,000 active. P55789. purified ALR, DTT oxidation, H2O2 HRP-luminol luminescence;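 active = mean and each replicate at 75% or more; inconclusive = only one of the two met; inactive = neither met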;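 note: stock transfer was 7.5 nL into about 7.5 µL; 0% = neutral wells and 100% = wells with inactivated enzyme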
Target sequence (P55789 whole entry, looked up): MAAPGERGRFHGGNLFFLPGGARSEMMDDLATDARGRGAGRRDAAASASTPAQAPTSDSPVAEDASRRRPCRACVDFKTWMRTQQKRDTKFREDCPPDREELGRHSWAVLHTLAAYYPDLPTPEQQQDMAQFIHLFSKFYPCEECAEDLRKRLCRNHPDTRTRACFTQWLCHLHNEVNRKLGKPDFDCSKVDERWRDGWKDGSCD
Beta2AR agonist: agonists of human beta-2 adrenergic receptor inducing internalization. 0.43% of 340,000 active. P07550. response, % (test concentration not listed). AID 504454. Am2.2-beta2AR cells, FAP receptor internalization, flow cytometry; reference of the scale not given here;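 active = response above a set limit, near 3 SD of response in nonfluorescent compounds, cut at about 42% in these data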;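 note: stock transfer was 100 nL into about 11 µL; a reference agonist was the positive control; negative values mostly stem from fluorescent compounds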
Target sequence (P07550 whole entry, looked up): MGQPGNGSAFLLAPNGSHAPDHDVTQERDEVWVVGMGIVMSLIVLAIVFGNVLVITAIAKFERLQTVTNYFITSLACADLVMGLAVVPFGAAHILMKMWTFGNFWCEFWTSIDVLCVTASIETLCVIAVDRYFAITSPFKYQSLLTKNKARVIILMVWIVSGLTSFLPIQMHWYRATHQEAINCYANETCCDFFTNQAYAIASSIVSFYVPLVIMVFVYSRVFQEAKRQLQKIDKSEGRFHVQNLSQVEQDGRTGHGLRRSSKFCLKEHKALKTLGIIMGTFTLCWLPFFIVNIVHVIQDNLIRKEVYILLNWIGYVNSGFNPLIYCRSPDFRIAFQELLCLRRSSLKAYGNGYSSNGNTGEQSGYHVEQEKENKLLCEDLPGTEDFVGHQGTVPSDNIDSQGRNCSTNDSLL
LANA-H2A inh: blocks KSHV LANA binding to histone H2A/H2B; AID 2629; inhibition, % (test concentration not listed); 0.6% of 320,000 active; Q9QR71; cell-free LANA-H2A/H2B peptide, fluorescence polarization; in the data active = inhibition mostly above about 10%, no sharp cut-off; inactive = mostly below about 6.7%;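 note: stock transfer was 7.5 nL into about 10 µL; 0% = median of vehicle wells and 100% = median of positive control wells; one replicate is shown; the record names a cut of 25% in any replicate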
Calb FLC: C. albicans growth modulation with fluconazole. C. albicans CaCi-2 (fluconazole-resistant clinical isolate) + fluconazole, Alamar Blue growth, 48 h. 0.57% of 300,000 active. growth inhibition, % (no concentration beside the values);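 active = most replicates above 75%; inconclusive = exactly half above 75%; inactive = most below 75%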;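 note: all wells also contain fluconazole at 8 µg/ml as a sub-toxic cotreatment; 0% = median of DMSO wells and 100% = median of geldanamycin control wells; wells of about 8 µL received 7.5 nL stock; the first replicate is given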
Vif A3G: inhibitors of Vif binding to APOBEC3G peptide, primary screen, biochemical, TR-FRET, GST-Vif 1-94, biotin-A3G peptide, dose response retest (AID 1117319) | inhibition, %; hits with a dose series show IC50 in µM | 0.57% of 260,000 active | TR-FRET GST-Vif / biotin-A3G peptide binding; higher % means a stronger effect; test concentration not given here; strong numbers were not always called active;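 active = above the screen mean plus three standard deviations and confirmed in dose response; inconclusive = results disagree or hit not tested in dose response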;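 note: Vif residues 1-94 fused to GST binding biotinylated APOBEC3G peptide 110-148; 0% = full assay without inhibitor and 100% = GST in place of GST-Vif; retest series ran down from 100 µM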
* = called active by the depositor; u = inconclusive; x = not tested or not shown; & = joins results of further samples.

SMILES	RanGTP-Imp inh	HNF4A DNA FP	ALR H2O2 inh	Beta2AR agonist	LANA-H2A inh	Calb FLC	Vif A3G
CC(=O)Nc1c(C(N)=O)oc2ccc(Cl)cc12	3.3	-0.3	-13	0	0.0	-3	x
CCN(c1ccccc1C(=O)O)S(=O)(=O)c1cccc2nsnc12	4.5	2.8	-36	-5	1.5	6	x
O=C(Cn1cnc2cc([N+](=O)[O-])ccc2c1=O)N(Cc1ccccc1)C1CCS(=O)(=O)C1 (centres undefined)	6.0	-1.9	-25	-4	6.2	u	4%
CCC(C)NC(=O)c1ccc(CNS(=O)(=O)c2ccc3c(c2)C(C)(C)C(=O)N3C)cc1 (centres undefined)	5.7	-2.1	2	0	-2.4	-4	x
O=c1cc(O)c2ccccc2[nH]1	-0.3	0.0	-1	-6	-2.4	3	x
COc1ccc(S(=O)(=O)N2CCCC(C(=O)NCCCn3ccnc3)C2)cc1OC (centres undefined)	-3.4	0.6	-1	11	-1.1	-5	x
O=C(c1cccs1)N1CCCN(c2ncnc3scc(-c4ccccc4)c23)CC1	1.7	6.4	x	-5	-1.2	0	6%
CSCCNCc1c(C(=O)N2CCOCC2)nc2c(C)cccn12	2.0	-1.5	-4	12	-12	3	-5%
O=C1C(=O)N(CCO)C(c2cccc(F)c2)/C1=C(\O)c1ccc(Cl)cc1 (centres undefined)	-2.0	0.5	-6	4	1.7	18	-6%
COCCn1c(N)c(N(Cc2ccccc2)C(=O)c2ccc(C#N)cc2)c(=O)[nH]c1=O	4.3	3.0	-3	-5	0.5	-2	5%
COc1ccccc1C(=O)Nc1ccnn1C1CCN(Cc2cnc(N(C)C)s2)CC1	-6.4	8.8	-22	3	1.7	-3	0%
CCCC/C=C/C(NC(=O)CCc1ccccc1)c1ccccc1 (centres undefined)	-1.2	1.1	15	-1	-4.1	-9	8%
CC(C)Cn1cnc2c(=O)oc3ccccc3c21	4.1	-4.1	-5	-7	6.3	-3	5%
CC(C)CCNC(=O)NC(=O)CN1C(=O)NC2(CCCCC2)C1=O	5.3	1.6	4	-1	5.5	-2	27%
O=C(O)c1cc(N/N=C/c2ccc3c(c2)OCO3)ccc1Cl	1.7	0.4	37	7	1.9	-4	11%
COc1cc(NC(=O)c2[nH]cnc2C(N)=O)cc(C(=O)Nc2cccc(C(F)(F)F)c2)c1	x	1.3	-5	3	-1.3	x	x
COC1=C(c2ccccc2)C(=O)c2ccccc2C1=O	x	-6.0	-60	12	0.1	x	11%
Cc1ccc(C(C)(C)C)cc1S(=O)(=O)Nc1cccc(S(=O)(=O)NC2=NCCC2)c1	-9.3	2.4	1	-10	-5.5	4	u
CCCCNC(=O)CSc1nc2ccc(NC(=O)CSc3nnc(COc4ccccc4C)n3C)cc2s1	4.0	0.9	x	-6	-1.1	-10	-1%
Cc1ccc(C(C(=O)NC(C)(C)C)N(C(=O)c2csnn2)C2CC2)cc1 (centres undefined)	1.1	2.3	x	-5	-2.5	57	0%
Cc1sc(NC(=O)C2C3C=CC(C3)C2C(=O)O)c(C(N)=O)c1-c1ccc(C(C)C)cc1 (centres undefined)	-2.1	-0.6	4	11	0.4	-9	-9%
COc1ccc(C2CC(c3ccc(Cl)cc3)Nc3nc(NC(=O)c4ccco4)nn32)cc1 (centres undefined)	1.9	1.1	x	-1	x	-1	6%&-6%
CN(C(=S)NC(=O)CCCOc1ccc(Cl)cc1Cl)c1ccccc1	-3.4	-0.6	73	-2	0.1	2	4%
CCOc1ccc(CC(=O)NNC(=S)NCCc2ccccc2)cc1	u	4.1	-5	13	0.2	-15	14%
CCn1c(CC(=O)Nc2cccc(OC)c2)nnc1SCC(=O)Nc1nccs1	6.8	-2.1	-4	7	3.5	22	2%
O=C(O)CCN1C(=O)C2CCCCC2C1=O (centres undefined)	2.5	3.1	-2	-4	-4.0	-15	-6%
Cc1nc2c(=O)n(C)c(=O)n(C)c2nc1Cl	u	1.5	23	15	x	-2	-1%
Cc1oc2cc(O)ccc2c(=O)c1-c1ccccc1	0.2	5.2	-4	-4	1.1	-10	4%
CCN1CCN(c2cc(C)c3cc(NC(=S)N(CC)CC)ccc3n2)CC1	5.7	2.2	44	3	0.7	2	0%
CSc1nnc(-c2ccc([N+](=O)[O-])cc2)o1	3.3	0.7	-14	5	3.2	-1	12%
COC(=O)C1=C(C)N=C2SCCC(=O)N2C1c1ccc(C(=O)OC)cc1 (centres undefined)	-2.2	-0.1	-5	-2	2.1	14	18%
COc1ccc(-c2nn(C)c(=O)c3ccccc23)cc1NC(=O)COc1ccc(C)cc1	-0.5	-3.2	-7	31	-5.5	-1	22%
CC(C)N(C(=O)Cn1cnc2cc([N+](=O)[O-])ccc2c1=O)C(C)C	3.2	x	-27	x	2.1	0	x
OCCNc1nc(Nc2cccc(O)c2)nc2ccccc12	4.2	3.9	95*	7	-2.9	5	-4%
COc1ccccc1C(=O)NC(=O)COC(=O)CCOc1ccc(C)cc1	-1.4	1.9	-3	-1	-2.3	0	-7%
CCc1ccccc1NC(=O)CN(C1CCCCC1)S(C)(=O)=O	1.5	-0.1	-9	-3	0.9	6	2%
COc1ccc(C(=O)NCCSCc2cccc(Cl)c2)cc1OC	3.8	4.0	6	3	-2.2	22	x
O=C(CSc1ccc(F)cc1)Nc1ccc(C2SCCS2)cc1	1.4	-1.1	-4	3	5.2	-3	-5%
Cc1ccccc1CNC(=O)c1cc2ccccc2o1	-4.9	-1.6	x	-2	1.3	-3	-3%
COc1ccc(C2CCCN2C(=S)Nc2cccc(Cl)c2)cc1OC (centres undefined)	u	-4.3	-11	13	-2.0	-5	-3%
Cc1cc(C)c(S(=O)(=O)c2ccccc2C(=O)O)c(C)c1	1.4	-0.5	2	6	5.6	15	0%
O=C(Nc1nnc(CC(c2ccccc2)c2ccccc2)s1)c1ccco1	-0.1	-3.2	1	3	-6.5	-9	0%
O=C(CSCC(=O)N1CCOCC1)Nc1ccccc1	x	0.7	45	-6	0.9	-6	4%
NC(=S)NN=C1c2ccccc2-c2cc(Br)ccc21	x	-2.5	x	-3	x	x	-5%
O=C(c1ccccc1)C1OC1C(=O)c1ccccc1 (centres undefined)	x	1.8	x	3	x	x	-6%
O=C1CN(S(=O)(=O)c2ccc(F)cc2)CC(=O)N1CCc1ccccc1	4.8	x	x	x	x	4	-1%
O=C(O)Cc1ccc(C(=O)c2ccc(Cl)cc2Cl)s1	5.0	0.2	66	-4	0.9	-1	-9%
CCOc1ccccc1/C=N/n1nnnc1N	2.9	-2.4	-3	9	-1.9	6	x
Cc1nc(SCC(=O)NCC2CCCO2)nc(C)c1C (centres undefined)	x	-0.1	x	3	2.3	x	x
O=S(=O)(c1cccs1)N1CCN(Cc2cccc(F)c2)CC1	x	-2.0	-2	11	1.6	x	x
Cc1ccc(CNC(=O)CCS(=O)(=O)c2cc3c(cc2C)NC(=O)CO3)cc1	-2.3	3.4	-2	15	2.1	-5	x
CCC(=O)Nc1ccc(NC(=O)CSc2nc3c(c(=O)n(C)c(=O)n3C)n2CC)cc1	3.4	2.8	x	5	-9.8	9	x
CC(C)(C)NNC(=S)Nc1cccc(F)c1	7.9	1.9	-4	6	-13	-2	5%
CCCCn1c(N)c(N(CC(C)C)C(=O)C2CCN(S(=O)(=O)c3ccc(F)cc3)CC2)c(=O)[nH]c1=O	3.1	0.6	-5	-3	-2.2	24	-5%
OC[C@H]1NC[C@@H](O)[C@@H]1O	x	-0.8	-14	-7	3.1	x	x
CC(C)(C)C(=O)NC1(C(F)(F)F)NC(=O)N(Cc2ccccc2)C1=O (centres undefined)	-1.9	-0.2	-5	0	-13	1	12%
CCOc1cc(N2CCOCC2)c(OCC)cc1NC(=O)c1cc(S(=O)(=O)N2CCOCC2)ccc1Cl	x	-0.7	x	1	x	x	7%
Cc1oc(-c2cccc(F)c2)nc1CN1CCCN(C(=O)c2ccco2)CC1	24	3.4	0	-5	0.4	1	x
Cc1ccc(NC(=S)Nn2cnnc2)c(C)c1	3.8	-2.3	27	4	4.2	82*	x
O=C(NN=Cc1ccccc1)c1ccccc1	x	1.7	x	2	x	x	-8%

Other results.
SMILES	RanGTP-Imp inh	HNF4A DNA FP	ALR H2O2 inh	Beta2AR agonist	LANA-H2A inh	Calb FLC	Vif A3G
CC(=O)N1CCN(C(=O)CN2C(=O)NC(C)(c3ccc4ccccc4c3)C2=O)CC1 (centres undefined)	x	3.4	x	-1	4.6	x	11%
COC(=O)c1c(C#N)c(N)nc2c1CCC2	66*	-1.2	-2	10	-2.5	1	26%
O=C(COc1c(Cl)cc(Cl)cc1Cl)c1ccc(Cl)cc1	1.0	1.0	x	8	0.1	7	-3%
COc1ccccc1CN1CCNC(=O)C1CC(=O)NCCCn1cccn1 (centres undefined)	0.6	0.3	-6	12	-0.6	u	13%
Cc1ccc(CC(=O)NCC2CCCCC2)cc1	1.9	1.3	-6	4	1.3	-9	x
O=C(c1cc2ccccc2cc1O)N1CCN(c2cccc(Cl)c2)CC1	1.8	-1.3	-14	3	-0.3	34	-6%
CC(C(=O)Nc1ccc(S(=O)(=O)N2CCCCC2)cc1)N1CCN(c2ccccn2)CC1 (centres undefined)	-2.8	x	-6	x	138*	-12	-10%
Cc1cccc(Cc2nnc(CCC(=O)N3CCCCC3c3nccs3)o2)c1 (centres undefined)	0.9	-2.1	2	-2	-3.5	100*	1%
CC(=O)c1cn(CCOc2ccc(F)cc2)c2ccccc12	-4.9	-1.9	-10	-8	6.8	-15	x
CC(C)c1ccc(NC(=O)NC2(C(=O)NCc3cccnc3)CCCCC2)cc1	3.7	-2.4	-2	24	5.9	2	-2%
Nc1ccc2c(c1)C(=O)c1cc(N)c(Cl)cc1-2	x	-0.6	x	-6	x	x	-7%
O=C(CCNC(=O)c1ccc([N+](=O)[O-])cc1)NCCc1ccccc1	-1.8	1.7	-14	3	1.3	-6	x
CCCN(CCC)CCCn1c(=O)[nH]c2ccccc21	-1.5	-2.3	-1	-8	0.5	-6	-5%
CN(C)C(=O)c1ccc(NC(=O)c2sccc2-c2ccccc2)cc1	-0.6	0.5	-8	-7	-6.9	59	-34%
CCC1(C)N=c2c(c(=O)n(C)c(=O)n2C)=NO1 (centres undefined)	-1.8	-0.1	-1	4	1.0	0	-4%

Taken from the entries so far, two compounds:
SMILES	RanGTP-Imp inh	HNF4A DNA FP	ALR H2O2 inh	Beta2AR agonist	LANA-H2A inh	Calb FLC	Vif A3G
CC(=O)N1CCN(C(=O)CN2C(=O)NC(C)(c3ccc4ccccc4c3)C2=O)CC1 (centres undefined)	x	3.4	x	-1	4.6	x	11%
COC(=O)c1c(C#N)c(N)nc2c1CCC2	66*	-1.2	-2	10	-2.5	1	26%

The results go on.
SMILES	RanGTP-Imp inh	HNF4A DNA FP	ALR H2O2 inh	Beta2AR agonist	LANA-H2A inh	Calb FLC	Vif A3G
CCC(=O)Nc1nc2nc(-c3ccccc3)cc(-c3ccccc3)n2n1	-4.5	-3.3	-10	-20	1.8	4	-2%
O=C(Nc1ccccc1)Nc1ccc(C(=O)N2CCOCC2)cc1	1.4	-6.0	-18	0	-0.2	5	-1%
O=C(NCCCN1CCOCC1)C1(c2ccccc2)CCCC1	1.0	1.2	0	-4	0.3	-6	68%
COc1ccc(S(=O)(=O)N2CCOCC2)cc1NC(=O)CSc1nnc(NC2CC2)s1	x	3.2	x	-3	-4.5	x	-3%
O=S(=O)(Nc1ccncc1Cl)c1ccc2ccccc2c1	3.2	4.0	-21	5	0.9	-6	x
COc1ccc(C)cc1NC(=O)c1ccc(CN2CCN(c3ccccc3)CC2)cc1	-1.1	-2.8	x	1	-0.2	-9	-1%
COc1cc(S(=O)(=O)N2CCN=C2c2ccccc2)ccc1F	3.8	-0.3	-12	-6	2.2	27	2%
Cc1ccc(-c2nc(-c3ccncc3)no2)c(C)c1	-0.7	-0.6	-3	-11	-1.7	11	x
N#Cc1c(NC(=O)CSCC(=O)O)sc2c1CCCC2	2.5	-1.6	-2	-8	-6.6	10	6%
